ClpP mod: qHTS Assay for Activators of ClpP; ATP-dependent Clp protease proteolytic subunit (Bacillus subtilis (strain 168)), P80244; purified B. subtilis ClpP, FRET peptide cleavage, 20 min; Potency, µM (series often up to 57.5 µM), for inactives: at the highest dose activity change, negative = active; 340,000 compounds, 1.9% hits; AID 651965, 2013; active = well fitted falling curve with a large enough effect; inconclusive = small, poorly fitted or top-dose-only effect; inactive = no such curve, though single readings can be large or run the other way; further: potency means the concentration at half of the fitted maximal effect; the source files actives as falling curves though it sought activators and does not explain the sign; nearly all actives have a fitted effect of over 65% in size; many hits overshoot -100%
Target sequence (P80244 whole entry, looked up): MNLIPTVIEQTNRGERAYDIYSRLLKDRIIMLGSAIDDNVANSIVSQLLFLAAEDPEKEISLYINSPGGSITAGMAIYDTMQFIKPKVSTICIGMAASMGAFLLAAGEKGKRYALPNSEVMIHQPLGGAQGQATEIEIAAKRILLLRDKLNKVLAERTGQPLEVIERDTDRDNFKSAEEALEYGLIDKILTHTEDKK
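ClpP 10 microg/mL final, pH 8 Tris/KCl buffer with BSA, glycerol, Tween-20; compound pinned in; FRET-FV substrate; RT 20 min; Ex320/Em430; ΔFRET vs ADEP 5.8 microM, DMSO, no enzyme.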
gsp agonist: gsp mutant agonism | AID 624287 | 340,000 compounds, 0.13% hits | Potency, µM (highest dose often 76.9 µM), inactives show top-dose activation (cAMP increase), hits mostly activators | gsp mutant cells, cAMP HTRF, 30 min; control for the full effect not named in the record; active = well fitted activation curve with a large enough effect; inconclusive = small, poorly fitted or top-dose-only effect, or another doubt; inactive = no such curve, though single readings can be large or run the other way; cell line not stated here;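 further: phosphodiesterase inhibitor Ro 20-1724 added with compounds to block cAMP breakdown; potency means the concentration at half of the fitted maximal effect; nearly all actives have a fitted effect of over 60% in size; about a fifth of the inactives were tested at one dose only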
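Cells in DMEM/10% FBS with G418 were pretreated with compounds in DMSO plus […] (300 uM stock) for 30 min at 37C. cAMP was measured by HTRF (cAMP-d2 plus anti-cAMP antibody-K) after 30 min at room temperature.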
Menin-MLL FL inh: menin-MLL binding inhibition, fluorescein peptide | Fluorescence polarization, fluorescein-MLL peptide displacement from menin | FP activity change, % at 61.4 µM | 290,000 tested, under 10 active; inconclusive = falling polarisation curve, or a change in total fluorescence; inactive = total fluorescence flat and polarisation flat or rising; no compound was filed as active; the % refers to the polarisation; negative = inhibition;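 further: % of control where 0% means no effect; inhibitors lower the polarisation; unlabelled MLL peptide was the positive control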
Sfp inh: blocks B. subtilis Sfp PPTase activity. Q9F4F7. Biochemical Sfp PPTase activity, qHTS. Potency, µM, for the others: max response, negative = inhibition, actives largely listed as inhibitors. 310,000 compounds, 3.5% hits; active means well fitted inhibition curve with a large enough effect; inconclusive means small, poorly fitted or top-dose-only effect, or another doubt; inactive means no such curve, though single readings can be large or run the other way;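 further: the enzyme is Sfp with the accession as filed and its product quenches rhodamine fluorescence; potency means the concentration at half of the fitted maximal effect; 0% = enzyme reaction without inhibitor and -100% = no enzyme wells; top concentration of the series not given in the record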
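Fluorescence-quenching assay with 15 nM Sfp, 5 uM rhodamine-CoA and 12.5 uM BHQ-2-labelled ybbR peptide in pH 7.6 Hepes/MgCl2 buffer. Enzyme was pre-incubated with compound for 15 min at room temperature. Rate was taken from the 30-min fluorescence change (525/598 nm).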
D2 potentiator: human D2 receptor positive allosteric modulation. potentiation, % (no concentration beside the values). DiscoveRx D2 beta-arrestin cells, luminescence, 90 min; 100% = 57 uM dopamine signal. 360,000 compounds, 0.23% hits. P14416; active = potentiation of 50% or more; inconclusive = 30% to 50%; inactive = 30% or less;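 further: compound concentration not given in the record; tested on top of an EC20 dose of dopamine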
Target sequence (P14416 whole entry, looked up): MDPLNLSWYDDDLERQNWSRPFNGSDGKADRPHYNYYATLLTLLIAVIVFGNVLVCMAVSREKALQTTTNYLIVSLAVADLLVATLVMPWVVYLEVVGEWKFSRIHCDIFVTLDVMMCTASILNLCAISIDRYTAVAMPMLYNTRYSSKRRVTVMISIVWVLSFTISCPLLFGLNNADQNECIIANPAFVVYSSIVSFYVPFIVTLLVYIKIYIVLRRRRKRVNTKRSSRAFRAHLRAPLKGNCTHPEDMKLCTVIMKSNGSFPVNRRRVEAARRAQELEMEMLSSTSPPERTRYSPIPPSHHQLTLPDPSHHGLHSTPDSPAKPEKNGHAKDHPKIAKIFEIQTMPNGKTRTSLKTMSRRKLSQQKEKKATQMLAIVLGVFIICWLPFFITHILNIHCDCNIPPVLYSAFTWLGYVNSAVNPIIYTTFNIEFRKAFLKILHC
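PathHunter D2 cells, attached overnight at 37 deg C, received compound in DMSO plus dopamine at EC20 (50 nM final) for 90 min at 37 deg C. Beta-arrestin recruitment was read as luminescence after 1 h with detection reagent at ambient temperature.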
gsp antagonist: gsp mutant antagonism; gsp-mutant cells, cAMP HTRF, 30 min; control for the full effect not named in the record; Potency, µM (doses to about 76.9 µM), for inactives: top-dose activity change, negative = inhibition, hits mostly inhibitors; 340,000 compounds, 0.4% hits; active = falling curve of any shape with a large fitted effect; inconclusive = falling curve, mostly with a smaller effect; inactive = flat or rising curve; cell line not stated here;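 further: intracellular cAMP measured with PDE inhibitor Ro 20-1724 present during compound exposure; potency means the concentration at half of the fitted maximal effect; on the % scale 0 is the no-effect control and ±100 the full control effect; nearly all actives have a fitted effect of over 65% in size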
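Measurement of cellular cAMP by homogeneous time-resolved fluorescence following a 30 min compound exposure at 37C. The PDE inhibitor […] was present throughout; the assay buffer was DPBS with 0.05% BSA and 0.005% Tween 20.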
TRPV1 PAM: enhances activation of the human vanilloid receptor TRPV1; Q8NER1; TRPV1-expressing cells, Fluo-8 calcium influx, capsaicin EC20 potentiation; host cell line not named in the record; control for the full effect not named in the record; potentiation, % at 8.33 µM; 320,000 compounds, 0.02% hits; active means potentiation above 80%; inconclusive means 30% to 80%; inactive means below 30%; further: 0% is about no effect
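Fluo-8 calcium influx in TRPV1-expressing cells, kinetic read (ex 480/em 520 nm). Compound added and read 3 min for agonist activity, followed by capsaicin at EC20 final and 2 min further read for enhancement.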
* marks the source's active call; other numbers are inactive results; ? = inconclusive; / = not tested or not shown; [ ] = dose if it differs, or a comment.

SMILES	ClpP mod	gsp agonist	Menin-MLL FL inh	Sfp inh	D2 potentiator	gsp antagonist	TRPV1 PAM
Cc1ccc(NC(=O)/C=C2\NC(=O)CS2)cc1	/	-8%[15.4 µM]	7.5	-9%	-8	-4%	-9
COc1ccccc1N1CCN(S(=O)(=O)CCNC(=O)COc2ccccc2)CC1	-0.8%	-8%	/	/	-17	/	/
O=C(Cc1noc2ccccc12)NNC(=S)Nc1ccccc1	-1.9%	7%[15.4 µM]	-0.4	19%	-10	-3%	4
O=C(NCC1CCCO1)c1ccccc1-c1nc(-c2ccccc2F)no1 (stereo unspecified)	-0.4%	-10%	-1.5	-11%	-1	5%	20
COc1ccc(C2NC(=O)NC3=C2CCc2ccccc23)cc1 (stereo unspecified)	16µM*	14%	2.9	?	?	2%	28
COc1ccc(N(C(=O)Cc2cccs2)C(C(=O)NC2CCCC2)c2ccncc2)cc1 (stereo unspecified)	/	-5%[15.4 µM]	/	11%	5	6%	-1
COc1cc(/C=C2\SC(=O)N(CCNC(=O)c3cnc(C)cn3)C2=O)cc(OC)c1OC	1.5%	1%	-0.4	16%	-2	2%	9
N#CCSc1nnc(CNc2ccc(F)cc2)o1	-1.6%	6%	-0.8	4%	1	14%	0
O=C1COc2ccc(C(=O)COC(=O)Cn3cnc4ccccc43)cc2N1	-2.2%	-4%	3.8	?	15	-2%	-19
CCN=C(Nc1ccc(Cl)cc1)c1cccnc1	-4.3%	-31%[inhibitor]	4.0	4%	-10	1%	/
Cn1c(CSCc2ccccc2)nnc1SCC(=O)Nc1ccc(C(=O)O)cc1	-0.2%	8%	-3.5	-10%	-12	2%	-9
Cc1coc(NC(=O)CSc2nc(-c3ccc(Cl)cc3)cc(C(F)(F)F)c2C#N)n1	0.9%	?	6.2	18%	-3	7%	-3
COC(=O)c1cc(OC)c(OC)cc1NC(=O)c1cc(OC)cc(OC)c1	/	4%[15.4 µM]	-1.9	?	-4	3%	5
COc1ccc2nc(N3C(=O)C(O)=C(C(=O)c4ccco4)C3c3ccc(OC)c(OC)c3)sc2c1 (stereo unspecified)	-0.6%	4%	/	/	-5	/	/
O=C(NCc1ccccc1)Oc1cccc(Cl)c1	0.6%	10%	1.7	23%	1	-4%	0
CCOc1ccc(C(=O)/C=C/Nc2ccc(S(=O)(=O)Nc3onc(C)c3C)cc2)cc1	-3.0%	0%	11	?	3	-12%	-10
O=C(NC1CCCC1)c1cc(-c2ccc(Cl)c(Cl)c2)on1	/	-10%[15.4 µM]	-12	-10%	-2	-10%	14
O=C1[C@H]2[C@@H](c3ccccc3)N[C@]3(CCCN(Cc4ccc(C(F)(F)F)cc4)C3=O)[C@H]2C(=O)N1Cc1ccccc1	0.8%	-14%	/	/	-6	/	/
CC(N=C1NS(=O)(=O)c2ccccc21)C(=O)Nc1ccc(F)cc1Cl (stereo unspecified)	2.2%	7%	/	/	8	-2%	13
CC(=O)NC(=S)Nc1ccc(NC(=S)NC(=O)c2ccc([N+](=O)[O-])cc2)cc1	/	-3%[15.4 µM]	-0.3	-19%	-11	3%	-14
NC(=O)CC[C@H](NC(=O)c1ccc(F)cc1)C(=O)OCC(=O)NCc1ccc(F)cc1	/	4%[15.4 µM]	0.7	23%	-4	4%	4
COc1cc(C2c3cc4c(cc3C3OC(=O)C2C3CO)OCO4)cc(OC)c1OC (stereo unspecified)	-0.6%	10%	/	/	-10	/	/
Cc1cccn2c(=O)c(C=O)c(N3CC(C)OC(C)C3)nc12 (stereo unspecified)	/	?	5.3	-1%	-1	8%	-4
Cc1ccccc1OCC(=O)Nc1ccccc1N1CCCCC1	0.4%	-7%	0.7	?	-13	-9%	1
CCOC(=O)N1CCN(Cc2nc3cc([N+](=O)[O-])ccc3n2CC)CC1	0.2%	29%	-14	-1%	3	-4%	-17
(listing goes on)
SMILES	ClpP mod	gsp agonist	Menin-MLL FL inh	Sfp inh	D2 potentiator	gsp antagonist	TRPV1 PAM
C[C@H](NC(=O)[C@@H]1Cc2ccccc2CN1)C(=O)NC[C@H]1CC[C@H](C(=O)O)CC1	-1.1%	3%	-1.3	-3%	-4	3%	4
O=C(NCCCN1CCOCC1)c1ccccc1	1.2%	?	-1.1	-6%	-4	10%	-2
COc1ccc(-n2c(=S)[nH]c3cc(C(=O)NCc4cccnc4)ccc3c2=O)cc1	/	-3%[15.4 µM]	4.3	8%	-10	-2%	3
CCC(=O)NC(=S)Nc1cccc(Cl)c1N1CCCC1	1.1%	7%	2.4	-3%	-3	3%	-1
Oc1c(CN2CCCCC2)cc(COCc2ccccc2)c2cccnc12	1.6%	-11%[15.4 µM]	5.3	-16%	-56	22%	8
O=C(COc1ccc(/C=N/NC(=O)c2ccc(O)cc2)cc1)Nc1ccc([N+](=O)[O-])cc1	0.6%	-30%[inhibitor]	5.5	-20%	-4	-26%	-9
Oc1ccccc1Nc1ccccn1	1.3%	1%[15.4 µM]	-3.4	13%	1	-11%	5
NS(=O)(=O)c1cccc(NC(=O)COC(=O)c2cc(-c3ccc(Cl)cc3)nc3ccccc23)c1	4.1%	-22%	0.4	30%	-5	-19%	26
COc1cc(N)c(Cc2nccc3cc(OC)c(OC)cc23)cc1OC	/	?	-26	-22%	1	6%	-2
COc1ccc(COC(=O)CNC(=O)C2CCCCC2)cc1F	-1.2%	-5%[15.4 µM]	/	/	14	-2%	/
COc1ccc(N(CCCN2C(=O)c3cccc4cccc(c34)C2=O)C(=O)c2ccncc2)cc1	/	5%	0.4	9%	-3	28%	8
Cc1ccnc(NC(=O)CCCNC(=O)c2ccc(Cl)cc2)c1	/	18%[15.4 µM]	/	/	-3	0%	-9
CCN(C(=O)CSc1nncn1-c1ccccc1)C1CCS(=O)(=O)C1 (stereo unspecified)	-0.9%	14%	/	/	-1	9%	-2
CC(=O)c1cccc(NC(=O)C(C)OC(=O)CNC(=O)c2ccc(C)s2)c1 (stereo unspecified)	-0.1%	-42%[inhibitor]	-3.6	13%	-8	-8%	1
COc1ccc(CN2C(=O)CCC2(C)C(=O)NCc2cccnc2)c(OC)c1 (stereo unspecified)	0.2%	9%	5.4	11%	-1	4%	3
N#Cc1c(Cl)nsc1NC(=O)c1ccccc1	-4.4%	36%	-0.1	13%	1	32µM*	5
Cc1ccnc(SCc2cc(=O)c(OC(=O)c3ccco3)co2)n1	-2.2%	-38%[inhibitor]	2.0	4%	-5	-3%	1
CCOc1ncccc1C(=O)Nc1cc(S(=O)(=O)N2CCCCCC2)ccc1OC	-30%	-22%	/	/	2	-9%	-1
Cc1ccccc1Cn1ccc(NC(=O)c2nn(C)cc2[N+](=O)[O-])n1	28µM*	7%[15.4 µM]	-1.1	-1%	-7	-11%	-10
CN(C)c1ccc(/C=N/N2C(=O)c3ccccc3C2=O)cc1	-4.6%	?	0.0	-3%	-15	4%	11
COc1ccc(F)cc1C(=O)C1CCCN(Cc2ccc(Sc3nncn3C)o2)C1 (stereo unspecified)	-7.6%	-36%[inhibitor]	6.4	15%	-3	-8%	28
CC1(C)NC(=O)N(CC(O)COc2cccc(F)c2)C1=O (stereo unspecified)	-0.5%	-37%	1.5	13%	-4	4%	2
Cc1nc(NCc2ccccn2)c2ccccc2n1	-11%	-14%	3.5	10%	-7	-19%	4
O=C(Nc1ccccc1)Nc1nc2ccccc2s1	0.1%	16%	-4.3	8%	-1	-2%	-1
Cc1ccc(OCC(=O)N2CCOCC2)c([N+](=O)[O-])n1	/	-3%[15.4 µM]	2.0	12%	-1	5%	-3

In the list so far, two contain a CF3 group.
SMILES	ClpP mod	gsp agonist	Menin-MLL FL inh	Sfp inh	D2 potentiator	gsp antagonist	TRPV1 PAM
Cc1coc(NC(=O)CSc2nc(-c3ccc(Cl)cc3)cc(C(F)(F)F)c2C#N)n1	0.9%	?	6.2	18%	-3	7%	-3
O=C1[C@H]2[C@@H](c3ccccc3)N[C@]3(CCCN(Cc4ccc(C(F)(F)F)cc4)C3=O)[C@H]2C(=O)N1Cc1ccccc1	0.8%	-14%	/	/	-6	/	/

The main list resumes, starting 2 compounds before the break.
SMILES	ClpP mod	gsp agonist	Menin-MLL FL inh	Sfp inh	D2 potentiator	gsp antagonist	TRPV1 PAM
O=C(Nc1ccccc1)Nc1nc2ccccc2s1	0.1%	16%	-4.3	8%	-1	-2%	-1
Cc1ccc(OCC(=O)N2CCOCC2)c([N+](=O)[O-])n1	/	-3%[15.4 µM]	2.0	12%	-1	5%	-3
O=S(=O)(c1ccc(Cl)c(F)c1)N1CCC(c2nc(-c3ccncc3)no2)CC1	0.3%	17%	5.1	12%	-10	?	6
COc1ccccc1[C@@]1(C)ON(c2ccccc2C(F)(F)F)C1=O	-4.7%	4%	/	/	-10	10%	15
O=C(O)CCC(=O)NNC(=O)c1ccc(Br)cc1	-1.7%	2%	-2.3	16%	-8	6%	6
Cn1ncc(Br)c1NC(=O)c1cc(Cl)cc(Cl)c1	-2.2%	2%	0.6	13%	-11	-2%	-13
Cc1noc(C)c1NC(=O)N(C)C[C@@H]1Oc2ncc(Br)cc2C(=O)N([C@@H](C)CO)C[C@H]1C	-0.5%	-109%[inhibitor]	/	/	5	/	/
CCOc1cc(S(=O)(=O)NCCc2ccc(OC)c(OC)c2)c(OCC)cc1-n1cnnn1	-2.3%	-29%	-2.0	12%	1	-11%	-8
Cc1ccccc1CN(c1ccc(C(=O)NCC2CCCO2)cc1)S(C)(=O)=O (stereo unspecified)	0.6%	4%	8.0	34%	-9	19%	-2
CC(=O)c1c(CC(=O)O)[nH]n(-c2nc3ccccc3s2)c1=O	-1.6%	4%	4.5	8%	1	3%	-5
COCC1CCN(C(=O)c2cc(COc3ccc(-n4cncn4)cc3)on2)C1 (stereo unspecified)	-1.5%	-55%[inhibitor]	/	8%	13	-4%	-29
COc1ccc(/C=N/NC(=O)C(C)n2nnc3ccccc32)cc1OC (stereo unspecified)	-5.1%	-1%	1.8	12%	5	12%	6
CNNC(=O)C(=O)NNS(=O)(=O)c1ccccc1	-0.2%	4%	2.6	?	12	6%	1
CCNC(=S)NNC(=O)c1ccc(OC(F)F)cc1	8.4%	9%	0.7	1%	-10	0%	21
Cc1c(C2(O)C(=O)Nc3ccc(F)cc32)c(=O)n(-c2ccccc2)n1C (stereo unspecified)	0.1%	-34%[inhibitor]	-0.7	6%	-8	13%	-3
